Screens (PubChem)
Six1-Eya2 inh = blocks human Six1 binding to Eya2; Q15475+O00167; AlphaScreen GST-Six1/His-Eya2 binding, biochemical; hits give low values; control for the full effect not named in the record; activity change, % (no concentration beside the values); 0.56% of 360,000 active; AID 651725; in the data active = activity change below about -65%; inconclusive = about -30% to -65%; inactive = above about -30%; further: on the % scale 0 is the no-effect control and ±100 the full control effect; compound concentration not given in the record
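Six1/Eya2 binding was read as AlphaScreen signal after compounds were pinned into GST-Six1 plus His-tagged Eya2 (5X stock 250/500 nM) in pH 8.0 Tris/NaCl/TCEP buffer, beads added, then incubated 1 h, 37 C, dark.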
D2 agonist = activates the human D2 dopamine receptor; AID 624465; P14416; activation, % (test concentration not listed); 0.084% of 360,000 active; DiscoveRx PathHunter D2 beta-arrestin, luminescence, 90 min; 100% = 57 uM dopamine signal; in the data active = activation above about 40%; inconclusive = about 15% to 40%; inactive = below about 15%; further: compound concentration not given in the record; the text of the record calls up to 30% inactive
Target sequence (P14416 whole entry, looked up): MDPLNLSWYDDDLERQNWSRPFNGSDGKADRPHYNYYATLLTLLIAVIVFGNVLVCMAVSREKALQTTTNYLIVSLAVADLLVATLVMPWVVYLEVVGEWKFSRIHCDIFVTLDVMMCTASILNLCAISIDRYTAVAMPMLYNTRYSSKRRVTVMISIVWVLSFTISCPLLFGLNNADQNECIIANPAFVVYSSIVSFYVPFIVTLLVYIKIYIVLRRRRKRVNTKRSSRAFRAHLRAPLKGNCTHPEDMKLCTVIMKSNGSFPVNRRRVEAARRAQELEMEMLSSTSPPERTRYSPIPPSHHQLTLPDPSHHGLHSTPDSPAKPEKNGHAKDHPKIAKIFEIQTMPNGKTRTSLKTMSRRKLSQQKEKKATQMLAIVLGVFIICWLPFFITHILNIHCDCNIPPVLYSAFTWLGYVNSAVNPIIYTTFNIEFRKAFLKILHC
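DiscoveRx PathHunter D2 beta-arrestin cells (2,100/well) attached overnight, then compound-stimulated 90 min at 37 C in HBSS/10 mM HEPES/0.1% Tween-20 buffer; beta-galactosidase complementation read by luminescence after 1 h at ambient temperature. Dopamine 57 uM final (EC100) as control.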
TRPML1 agonist = agonists of human TRPML1 channel; Q9GZU1; TRPML1-expressing cells, Ca2+ dye fluorescence, FDSS; host cell line not named in the record; reference of the full effect not given here; activation, % (test concentration not listed); 0.12% of 410,000 active; AID 624414; in the data active = activation above about 50%; inconclusive = about 30% to 50%; inactive = below about 30%; further: 0% is about no effect; the text of the record puts the active cut at 80%
Target sequence (Q9GZU1 whole entry, looked up): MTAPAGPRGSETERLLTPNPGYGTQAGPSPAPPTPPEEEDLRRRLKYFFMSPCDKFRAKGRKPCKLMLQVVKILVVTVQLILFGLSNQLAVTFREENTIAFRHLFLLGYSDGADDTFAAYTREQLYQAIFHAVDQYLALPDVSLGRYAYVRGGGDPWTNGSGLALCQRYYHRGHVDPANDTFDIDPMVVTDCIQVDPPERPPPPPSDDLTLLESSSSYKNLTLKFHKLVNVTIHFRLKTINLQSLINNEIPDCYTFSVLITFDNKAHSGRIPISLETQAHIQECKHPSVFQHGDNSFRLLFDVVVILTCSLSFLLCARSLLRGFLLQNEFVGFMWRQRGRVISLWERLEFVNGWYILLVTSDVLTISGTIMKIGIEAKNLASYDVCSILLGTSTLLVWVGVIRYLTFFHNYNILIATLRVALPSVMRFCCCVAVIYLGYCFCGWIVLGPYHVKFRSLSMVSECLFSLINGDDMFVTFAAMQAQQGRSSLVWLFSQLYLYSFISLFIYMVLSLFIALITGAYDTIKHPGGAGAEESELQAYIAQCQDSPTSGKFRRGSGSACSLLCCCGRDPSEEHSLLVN
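TRPML1-DL cells, Tet-induced overnight (~16 h, 37 degrees C), loaded 45-90 min at room temperature with Ca8 no-wash calcium dye plus quencher. FDSS fluorescence: 10 s baseline, compound pin-transfer, 110 s agonist read, then EC80 54-4 (4uM final) and 110 s antagonist read.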
PINK1 expr mod = PINK1 expression modulation | PINK1 immunofluorescence, high-content cytometry, 24 h | Potency, µM (titrated, usually from 76.6 µM), inactives show top-dose activation (PINK1 increase), actives largely listed as activators | 0.2% of 410,000 active | AID 624263; active = well fitted activation curve with a large enough effect; inconclusive = small, poorly fitted or top-dose-only effect; inactive = flat fitted curve, though single readings scatter; cell line not stated here;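 further: potency means the concentration at half of the fitted maximal effect; % of control where 0% means no effect; nearly all actives have a fitted effect of over 65% in size; a mitochondrial uncoupler was the plate control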
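Fluorescence from anti-PINK1 antibody, together with nuclear and cell stains, was scanned on a laser-scanning cytometer. Before staining, stable-line cells were incubated 24 hours with compounds at 5 concentrations; primary antibody 12 h at 10 degrees C.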
CtBP-E1A blk = inhibitors of CtBP/E1A interaction | AlphaScreen GST-E1A/His-CtBP binding, 1536-well; hits give low values; control for the full effect not named in the record | activity change, % (test concentration not listed) | 0.49% of 340,000 active | AID 651724; in the data active means activity change below about -65%; inconclusive means about -30% to -65%; inactive means above about -30%; further: on the % scale 0 is the no-effect control and ±100 the full control effect; compound concentration not given in the record
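AlphaScreen with 125 nM GST-E1A and 125 nM His-CtBP (5X stocks) in Tris pH 8.0, 300 mM NaCl, BSA, Tween 20, TCEP. Compounds preincubated 2 h at 37 deg C, then glutathione donor/nickel acceptor beads added for 1 h at 37 deg C in dark.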
TRPML1 inh = human mucolipin-1 channel inhibition. Q9GZU1. AID 624415. activity change, negative = inhibition, % (no concentration beside the values). TRPML1-inducible cells, Ca2+ dye fluorescence, FDSS; hits give low values; inhibition of EC80 agonist-evoked calcium signal. 0.02% of 390,000 active; in the data active means activity change below about -50%; inconclusive means about -30% to -50%; inactive means above about -30%;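 further: stimulus is agonist 54-4 at its EC80 concentration; on the % scale 0 is the no-effect control and ±100 the full control effect; compound concentration not given in the record; the text of the record puts the active cut at -80%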
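TRPML1-DL cells, Tet-induced overnight (~16 h, 37 °C) at 1,500 cells/well, were loaded with Ca8 no-wash dye plus quencher for 45-90 min at room temperature. Compounds were pinned during FDSS kinetic reading; agonist 54-4 at EC80 (4 uM final) then added.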
* marks the source's active call; other numbers are inactive results; u = inconclusive; x = no result given; & = joins results of further samples; [ ] = remark or other dose.

SMILES | Six1-Eya2 inh | D2 agonist | TRPML1 agonist | PINK1 expr mod | CtBP-E1A blk | TRPML1 inh
CC(=O)NC1CC2CCCC(C1)N2S(=O)(=O)c1ccccc1 (centres undefined) | 1 | 0.9 | 0.5 | -0.9% | 7 | -2
Cc1cc(=O)[nH]c(N/N=C/c2ccc(C)o2)n1 | -21 | -0.8 | 0.2 | -0.1% | -25 | 31
O=C(COC(=O)c1ccc(OC(F)F)cc1)NCCCN1CCCC1=O | -13 | -1.2 | 1.1 | -0.5% | -10 | 27
O=C(Nc1nnc(N2CCCCCC2)s1)c1cc(-c2ccc(Br)cc2)on1 | 0 | 0.5 | -0.4 | 0.3% | -17 | 6
CC1CCc2c(sc(NC(=O)CCc3nc4ccccc4c(=O)[nH]3)c2C#N)C1 (centres undefined) | 1 | -5.4 | -1.3 | 2.7% | x | 13
COC(=O)c1ccc(N=NN2CCCCC2)cc1 | -3 | -1.3 | 0.8 | 6.4% | -1 | 19
CC1(c2ccc3ccccc3c2)NC(=O)N(CC(=O)N2CCN(Cc3ccc(C#N)cc3)CC2)C1=O (centres undefined) | 1 | 2.4 | 0.2 | 3.6% | -4 | -7
CC(=O)c1cccc(NC(=O)Cn2c(=O)c(CNc3ccc(C)cc3)cc3cc4c(cc32)OCCO4)c1 | x | x | 4.4 | 0.3% | x | 9
CCC(=O)N1CCc2cc(S(=O)(=O)CCC(=O)N(C)c3ccc(OC)cc3)ccc21 | 2 | -0.3 | -0.1&-0.3 | 0.3%&0.2% | 1 | 24&-12
C/C(=N\NC(=O)c1ccc(CN2CCOCC2)cc1)c1cccc([N+](=O)[O-])c1 | -5 | 0.4 | 4.8 | 0.4% | -15 | 19
NC(=O)C1=C[C@H](c2ccc3c(c2)OCO3)C[C@H](OCc2ccc(CO)cc2)O1 | -1 | 1.0 | -0.5 | -1.0% | -21 | 37
CCCCNC(=O)C(=O)NC(C)CCc1ccccc1 (centres undefined) | 1 | 0.4 | 0.8 | 10% | 6 | -1
COC(=O)[C@@H]1C(c2c(OC)cc(OC)cc2OC)=NO[C@H]1C(=O)OC | 2 | -1.9 | -0.7 | -1.0% | 3 | -13
CCC/C=C/c1ccc(CN2C(CC(C)C)C(=O)N(Cc3cn(CCOCOC)nn3)CCS2(=O)=O)cc1 (centres undefined) | 0 | -7.5 | -0.1 | 2.4% | -12 | -10
CCC(Sc1nc2n[nH]c(C)c2c(=N)n1-c1cccc(Cl)c1)C(=O)NCCOC (centres undefined) | u | -1.2 | 0.1 | 2.0% | u | 1
COc1ccc(NC(=O)Nc2nnc(N(CC(C)C)CC(C)C)s2)c(OC)c1 | x | x | 0.7 | 8.2% | x | -15
CCOC(=O)c1sc(=S)n(CC)c1N | -7 | -3.0 | 4.5 | -1.6% | -4 | 15
C/C(=N\NC(=O)C(C)Oc1ccc([N+](=O)[O-])cc1)c1ccccn1 (centres undefined) | -88* | -4.5 | 0.3 | -5.6%[38.3 µM] | -94* | -6
CP(=O)(Nc1cc(Cl)ccc1Cl)c1nc2c(s1)CCCC2 (centres undefined) | -2 | 3.7 | 0.2 | -1.8% | 0 | -6
COc1cc(F)c(C2=CC(=O)C[C@H](c3ccc(Cl)cc3)C2)cc1F | 3 | -5.1 | 2.1 | 1.0% | x | 40
COc1ccccc1N(C)C(=O)Cn1c(=O)oc2cc(S(=O)(=O)N3CCCC3)ccc21 | x | x | 1.5 | -4.6% | x | -2
Cc1cc(C)n(-c2nnc(C)n2NC(=O)c2cccc(Cl)c2)n1 | -8 | -3.4 | 1.1 | -1.1% | -13 | 6
COc1cccc(NC(=O)CSc2nnnn2C2CCCCC2)c1 | 6 | -1.1 | 0.8 | 1.3% | 24 | 19
CCOC(=O)C1=C(c2ccccc2)Nc2ncnn2C1c1ccccn1 (centres undefined) | 4 | -2.2 | -0.7 | 0.5% | 6 | -7
O=c1c2sc3ccccc3c2n(Cc2ccccc2Cl)c(=O)n1Cc1ccccc1 | x | x | -0.3 | 1.4% | x | -5
Cc1ccc(/C=C/C(=O)N2CCCN(C(=O)/C=C/c3ccc(C)cc3)CC2)cc1 | 12 | -3.6 | 1.1 | -0.2% | 1 | 61
O=C1CC(=O)N(CCc2ccc(F)cc2)C(=O)N1 | 4 | -1.4 | -0.3 | 2.7% | 10 | -8
CC(C)C[C@H]1COc2cccc(N(C)CCO)c2S(=O)(=O)N1 | 4 | x | 2.3 | -0.3% | 1 | x
CCOC(=O)CSc1nc(COc2ccccc2)nc2ccccc12 | 10 | -1.1 | 0.6 | -0.6% | 21 | 1
CCS(=O)c1ccccc1C(=O)OCC(=O)Nc1cccc(S(=O)(=O)N2CCCCC2)c1 (centres undefined) | -3 | 3.7 | 0.3 | 2.2% | 1 | 10
O=C(Cc1ccccc1[N+](=O)[O-])NCCCc1ccccc1 | -11 | -1.4 | -1.3 | 1.1% | 0 | -12
CCCCn1c(-c2ccccc2)nc2c(=O)n(C)c(=O)[nH]c21 | 5 | 1.2 | -0.6 | -1.6% | 0 | 2
CCCCCCn1c(=O)n2n(c1=O)[C@@H]1CN(S(=O)(=O)c3ccc(C)cc3)C[C@]1(O)[C@@H](OC(=O)NCc1ccccc1)C2 | -8 | -8.8 | 0.4 | u | 5 | -2
CCOC(=O)c1[nH]c2c(c1C)C(=O)CC(c1ccco1)C2 (centres undefined) | -12 | 0.3 | 0.5 | 9.3% | 11 | 3
COc1nc(OC)nc(N2CCC(NC(=O)C(Cc3ccc(C(C)C)cc3)NC(C)=O)CC2)n1 (centres undefined) | -2 | -2.1 | -0.5 | 0.1% | 2 | 1
Nc1cc(=O)[nH]c(=O)n1CC1CC1 | 3 | -1.8 | 0.8 | 2.2% | x | 3
CCCCn1nc(NC(=O)c2cccc(Cl)c2)c2cc3ccccc3nc21 | x | x | 0.7 | 0.3% | x | 6
Cc1c(C(=O)N(C)c2ccccc2Cl)cnn1-c1ccccc1 | 0 | -1.8 | -0.3 | 0.5% | -13 | 14
CC(C)Cc1nnc(NC(=O)CSc2nc(-c3ccccc3)cc(=O)[nH]2)s1 | -9 | 2.0 | 0.0 | -0.3% | 0 | 5
Cc1cccc(C(=O)Nc2cccc3c2CCCC3)c1 | 17 | 0.0 | 1.2 | 3.3% | 10 | 28
COc1ccc(-c2cc(C(F)(F)F)n3nc(C(=O)Nc4cccc(Cl)c4Cl)cc3n2)cc1OC | x | x | 1.3 | 0.3% | x | 8
CCN(CC)CCCN1C(=O)C(O)=C(C(=O)c2ccc(C)o2)C1c1ccc(C)o1 (centres undefined) | 1 | -1.3 | 0.1 | 0.4% | 1 | -3
Cn1c2c(c(=O)n(C)c1=O)C(c1ccccc1C(F)(F)F)CC(=O)N2 (centres undefined) | x | x | -0.6 | -0.7% | x | 22
CC(=O)Nc1ccc(OCC(=O)NCCc2ccccc2)cc1 | -1 | 0.4 | -0.1 | -0.2% | 5 | -3
O=C(COC(=O)c1cc([N+](=O)[O-])ccc1NCc1ccccc1)NC1CCCCC1 | 8 | -2.0 | 1.5 | 0.9% | -7 | 56

Single entries from above:
In PINK1 expr mod, CCCCn1nc(NC(=O)c2cccc(Cl)c2)c2cc3ccccc3nc21 reads 0.3%
In TRPML1 inh, CC(=O)Nc1ccc(OCC(=O)NCCc2ccccc2)cc1 reads -3
In TRPML1 inh, CCCCCCn1c(=O)n2n(c1=O)[C@@H]1CN(S(=O)(=O)c3ccc(C)cc3)C[C@]1(O)[C@@H](OC(=O)NCc1ccccc1)C2 reads -2

The listing picks up; the 2 compounds before the break are reprinted first.
SMILES | Six1-Eya2 inh | D2 agonist | TRPML1 agonist | PINK1 expr mod | CtBP-E1A blk | TRPML1 inh
CC(=O)Nc1ccc(OCC(=O)NCCc2ccccc2)cc1 | -1 | 0.4 | -0.1 | -0.2% | 5 | -3
O=C(COC(=O)c1cc([N+](=O)[O-])ccc1NCc1ccccc1)NC1CCCCC1 | 8 | -2.0 | 1.5 | 0.9% | -7 | 56
CCCC(=O)NC(=S)Nc1ccccc1OC | 6 | -2.0 | -0.4 | -2.8% | -9 | -5
O=C(NC1CCCC1)C(c1c[nH]c2ccccc12)N(C(=O)Cn1nnc(-c2ccc(Cl)cc2)n1)c1ccccc1 (centres undefined) | -9 | 1.0 | 3.4 | 4.4% | -20 | 6
COc1ccc(N2CCN(C(=O)[C@@H]3CCCN3C3=NS(=O)(=O)c4ccccc43)CC2)cc1 | -7 | -0.5 | -0.3 | -0.4% | -1 | 9
C[C@@H]1CN([C@H](C)CO)C(=O)CCCn2nncc2CO[C@H]1CN(C)C(=O)c1ccncc1 | 3 | -0.6 | x | -1.0% | 4 | x
O=C(NC(C(=O)N1CCCC1C(=O)O)=C1CCCCC1)c1ccccc1 (centres undefined) | 1 | -1.7 | -0.7 | -1.5% | 4 | 22
CC1CCc2c(sc(NC(=O)CCCOc3ccc(C(C)(C)C)cc3)c2C(N)=O)C1 (centres undefined) | x | x | -0.2 | 2.7% | x | 10
COCCn1c(SCC(=O)NCCc2ccc(OC)c(OC)c2)nc2c([nH]c3ccccc32)c1=O | -2 | -1.1 | -0.4 | 4.0% | -17 | -2
Cc1ccc(C)c(S(=O)(=O)Nc2ccc(C(=O)NCCc3ccccn3)cc2)c1 | -1 | -4.0 | -1.3 | 0.4% | 3 | 29
Cc1ccccc1-c1noc(CNC(=O)c2ccco2)n1 | 0 | -3.1 | -0.1 | 2.0% | 4 | 5
O=C(c1csc2c1CCCC2)N1CCN(c2ncccn2)CC1 | 0 | -0.5 | 0.1 | 4.4%[38.3 µM] | 47 | 0
CN(C)S(=O)(=O)N(CC(=O)Nc1ccc2ccccc2c1)c1ccccc1 | -7 | -1.1 | -0.9 | -1.5% | 0 | -4
CCC1CCCCN1CCCNC(=O)CCNC(=O)Cn1cnc2ccccc2c1=O (centres undefined) | 0 | -5.1 | 0.1 | 0.1% | 4 | -7
CCOC(=O)CN1C(=O)C(CC)Oc2ccc(Cl)cc21 (centres undefined) | 9 | -0.6 | 3.1 | 1.7%[38.3 µM] | 4 | 23
CC1(c2cccc(Br)c2)NC(=O)N(CC(=O)NCC2CCCO2)C1=O (centres undefined) | -4 | -5.8 | -0.1 | -0.9% | x | -7
Cc1ccc(C)c(NC(=S)N(C)C)c1 | 6 | -3.5 | 0.0 | -2.1% | 6 | 4
COc1cccc(OC)c1OC(=O)/C=C/c1ccc(C)o1 | 0 | 3.3 | -0.3 | 6.8% | 4 | 0
O=S(=O)(NCC1COc2ccccc2O1)c1ccccc1F (centres undefined) | -1 | 6.2 | -0.7 | -0.6% | x | 2
CCn1cc(C(=O)NCc2ccc3c(c2)OCO3)c(=O)c2cc(S(=O)(=O)N(C)C)ccc21 | 4 | 1.9 | 0.0 | 6.4% | 6 | 0
